Screening data as filed in PubChem BioAssay.
Cruzain Triton – inhibitors of Trypanosoma cruzi cruzain with detergent. P25779. purified cruzain, Z-FR-AMC fluorescence, 0.01% Triton. Potency, µM, for inactives: max response, negative = inhibition, actives largely listed as inhibitors. hit rate 0.43% among 200,000. AID 1478; active = well fitted curve in the direction sought with a large enough effect; inconclusive = small, poorly fitted or top-dose-only effect, or another doubt; inactive = no such curve, though single readings can be large; an effect the other way counts as inactive or inconclusive;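 note: plate controls were neutral wells for no effect and buffer without enzyme for full effect; nearly all actives have a fitted effect of over 40% in size; top concentration of the series not given in the record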
Target sequence (P25779 123-467 limits assumed): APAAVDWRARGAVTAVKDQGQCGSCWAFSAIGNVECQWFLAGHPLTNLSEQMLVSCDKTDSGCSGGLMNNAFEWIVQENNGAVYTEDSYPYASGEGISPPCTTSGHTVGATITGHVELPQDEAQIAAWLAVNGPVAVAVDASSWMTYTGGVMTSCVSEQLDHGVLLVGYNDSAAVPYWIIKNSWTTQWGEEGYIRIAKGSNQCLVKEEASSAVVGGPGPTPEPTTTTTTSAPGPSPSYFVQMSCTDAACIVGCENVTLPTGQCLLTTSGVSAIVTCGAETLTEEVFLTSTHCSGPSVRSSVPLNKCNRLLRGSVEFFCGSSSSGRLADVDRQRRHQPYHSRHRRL
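Cruzain (1.5 nM) preincubated 15 min at RT with compound in 100 mM sodium acetate pH 5.5, 5 mM DTT, 0.01% Triton X-100. Reaction started with 2 uM Z-FR-AMC; AMC fluorescence (ex 360/em 450 nm) change over 60 s gave rate.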
NS1 inh – influenza NS1 inhibition; Potency, µM (titrated, usually from 46.1 µM), inactives show top-dose activity, positive = more growth; hit rate 0.4% among 270,000; S. cerevisiae slowed by influenza A NS1, growth recovery by OD600; note: actives are rising curves; nearly all actives have a fitted effect of over 50% in size
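Recovery from NS1-induced slow growth read by OD600 in budding yeast switched to galactose assay medium (pH 6.0, -URA) at 1:100 dilution. Compound 23 nl per well; the matching strain lacking NS1 serves as control.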
Cruzain inh noDet – cruzain (T. cruzi) inhibition without detergent; AID 1476; hit rate 2.3% among 200,000; purified cruzain, Z-FR-AMC fluorescence, no detergent; Potency, µM, for the others: max response, negative = inhibition, most hits filed as inhibitors; P25779; active = well fitted curve in the direction sought with a large enough effect; inconclusive = small, poorly fitted or top-dose-only effect, or another doubt; inactive = no such curve, though single readings can be large; an effect the other way counts as inactive or inconclusive;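 note: plate controls were enzyme without inhibitor for no effect and buffer without enzyme for full effect; nearly all actives have a fitted effect of over 40% in size; top concentration of the series not given in the record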
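Purified cruzain at 1.5 nM, pre-incubated 15 min with compound at room temperature in 100 mM sodium acetate pH 5.5, 5 mM DTT, 0.00005% Triton X-100. Reaction started with 2 uM Z-FR-AMC; AMC fluorescence increase over 60 s gives rate.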
SARS PLP yeast – blocks SARS-CoV papain-like protease in a yeast assay | S. cerevisiae expressing SARS-CoV PLpro, growth rescue; control for the full effect not named in the record | Potency, µM (series often up to 32.9 µM), for the others: top-dose activity, positive = growth rescue | hit rate 0.19% among 330,000 | AID 485353; note: 0% is about no effect; nearly all actives have a fitted effect of over 55% in size; growth read by luminescence after 48 h
StopGo reporter – lowers the luciferase signal of an FMDV 2A StopGo reporter. Potency, µM (series often up to 57.9 µM), for inactives: at the highest dose signal change, negative = less light. human cells with a luciferase reporter of 2A StopGo recoding; control for the full effect not named in the record. hit rate 1.2% among 410,000; active = well fitted falling curve with a large enough effect; inconclusive = small, poorly fitted or top-dose-only effect; inactive = no such curve, though single readings can be large or run the other way; tested in HEK293T cells; note: % is set by controls: 0 for no effect and ±100 for the full control effect; nearly all actives have a fitted effect of over 45% in size; luciferase light after 4 h
LASV entry inh – blocks Lassa virus binding to or entry into cells; Lassa virus pseudotype entry inhibition, cell reporter; control for the full effect not named in the record; hit rate 1.2% among 300,000; Potency, µM (highest dose often 37.9 µM), for the others: top-dose activity change, negative = inhibition, most hits filed as inhibitors; AID 540256; active means well fitted inhibition curve with a large enough effect; inconclusive means small, poorly fitted or top-dose-only effect, or effect the other way; inactive means flat fitted curve, though single readings scatter; tested in HEK293 cells; note: % is set by controls: 0 for no effect and ±100 for the full control effect; nearly all actives have a fitted effect of over 50% in size; luciferase read-out
Marburg entry inh – inhibitors of Marburg virus binding or cell entry; AID 540276; Marburg virus pseudotyped entry inhibition, cell reporter; control for the full effect not named in the record; about a third of the inactives were read at about 46 µM; Potency, µM (series often up to 37.8 µM), for inactives: at the highest dose activity change, negative = inhibition, actives largely listed as inhibitors; hit rate 1.8% among 300,000; active = well fitted inhibition curve with a large enough effect; inconclusive = small, poorly fitted or top-dose-only effect, or effect the other way; inactive = flat fitted curve, though single readings scatter; tested in HEK293 cells; about a fifth of its hits are not listed in these tables; note: % is set by controls: 0 for no effect and ±100 for the full control effect; luciferase read-out
RE007 growth inh – less growth of the S. pombe RE007 Vpr strain; S. pombe RE007 Vpr strain, BacTiter-Glo ATP luminescence, 24 h; control for the full effect not named in the record; Potency, µM (top dose mostly 92.2 µM), without a hit: top-dose activity change, negative = less growth; hit rate 0.21% among 360,000; active = well fitted falling curve with a large enough effect; inconclusive = small, poorly fitted or top-dose-only effect; inactive = no such curve, though single readings can be large or run the other way;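 note: % is set by controls: 0 for no effect and ±100 for the full control effect; nearly all actives have a fitted effect of over 50% in size; the assay follows cell death caused by Vpr and the record does not say whether a fall means rescue or toxicity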
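Fission yeast RE007 carrying one integrated HIV-1 vpr copy, seeded at OD 0.01 in PMG+AL medium with 23 nL pinned compound. Grown 24 h at 30 degrees; viability read by BacTiter-Glo luminescence after 5 min.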
Numbers without * were called inactive; u = inconclusive; x = not tested or not shown; & = joins results of further samples; [ ] = dose if it differs, or a comment. Unless noted, calls come from the whole dose curve; as a rule, active means well fitted rising curve with a large enough effect; inconclusive means small, poorly fitted or top-dose-only effect; inactive means no such curve, though single readings can be large or run the other way. Potency is the fitted concentration of half-maximal effect.

canonical_smiles | Cruzain Triton | NS1 inh | Cruzain inh noDet | SARS PLP yeast | StopGo reporter | LASV entry inh | Marburg entry inh | RE007 growth inh
CC1C(=O)Nc2ccccc2N1C(=O)c1ccc(F)cc1 (stereo not given) | x | 4% | x | 4% | 4% | -1%[46.1 µM] | -10%[46.1 µM] | 11%
O=[N+]([O-])c1ccc(N2CCN(c3nc(-c4ccc(Cl)cc4)cs3)CC2)cc1 | -2.0% | -5% | 13µM* | 6% | -15% | 12% | 30% | 1%
COc1ccc(SC[C@H](Cc2ccccc2)N2CCN(C)CCC2=O)cc1 | x | 1% | x | 1% | -10% | x | x | 9%
COc1ccc(OC)c(S(=O)(=O)n2nc(-c3ccccc3)cc2N)c1 | -8.4% | -38% | 1% | 2% | 3% | x | x | -24%
CCOc1ccc(OCCSc2nc3ccccc3[nH]2)cc1 | -7.9% | -34% | -8% | -80% | x | -6% | -21% | -11%
CCOc1cc(-c2cc(C(=O)O)c3c(-c4ccccc4)[nH]nc3n2)ccc1O | -5.3% | x | -6% | x | 33%[activator] | 9%[46.1 µM] | 3%[46.1 µM] | x
CCCCN(C)C(=S)Nc1ccc2nc3n(c(=O)c2c1)CCCCC3 | x | 1% | x | -7% | -10% | u | 5%[46.1 µM] | -1%
COc1ccccc1NC(=O)NC1CCS(=O)(=O)C1 (stereo not given) | x | 3% | x | -1% | -7% | -1% | -12%[46.1 µM] | 16%
O=C(C1=C[C@@H](C2CCCCC2)C[C@@H](OCCCCO)O1)N1CCN(Cc2ccccc2)CC1 | x | -12% | x | 0% | -13% | x | x | -13%
COc1ccc(CCNC(=O)C2CCC(=O)N(C3CC3)C2)c(OC)c1 (stereo not given) | x | 0% | x | 4% | -5% | 5% | 20% | -3%
Cc1cccc(C)c1NC(=O)Cn1c(=O)cc(C)c2c(C)nn(-c3cccc(Cl)c3C)c21 | 0.0% | x | -8% | x | -14% | 27%[46.1 µM] | x | x
O=C(O)CCCCCNC(=O)CCn1nnc2ccccc2c1=O | -1.0% | -6% | 26% | -3% | 17% | 2% | 9% | 7%
Cn1c(=O)c2c(ncn2CC(=O)N/N=C/c2ccc(Br)s2)n(C)c1=O | -7.8% | -8% | 4% | 32% | 0% | 5% | 3% | -24%
COc1cc2c(cc1OC)CN(C(=O)CN(C)S(=O)(=O)c1ccc(NC(C)=O)cc1)CC2 | x | 2% | x | -2% | -23% | u | 7%[46.1 µM] | 12%
Cc1cc2nc3c(=O)n(CCc4ccccc4)c(=O)[nH]c3nc2cc1N | x | 1% | x | 0% | u | 3%[46.1 µM] | 19%[46.1 µM] | 12%
CCOC(=O)c1ccccc1NC(=O)c1ccc2c(=O)n3c(nc2c1)CCCCC3 | -7.7% | -113% | u | 26% | -10% | x | x | 0%
CC/C(=N\Nc1ccccc1)c1c(O)n(-c2ccc(OC)cc2)c(=O)[nH]c1=O | x | -4% | x | -1% | u | u | 3% | 179%
Cc1ccccc1N1CCN(S(=O)(=O)c2nnc(NC(=O)c3ccc(Cl)cc3)s2)CC1 | -1.3% | x | 1% | x | u | -1%[46.1 µM] | x | x
CC1CCc2c(c3ccccc3n2C(=O)CCl)C1 (stereo not given) | x | -41% | x | 4% | 20µM* | -8%[46.1 µM] | -24%[46.1 µM] | -21%
COc1ccc(C2NC(=O)CCC2[N+](=O)[O-])cc1 (stereo not given) | x | 4% | x | 4% | 3% | -11% | 5% | 13%
COCCC(=O)N1CCC(n2nccc2NC(=O)CCc2ccccc2)CC1 | x | 3% | x | 13% | 0% | -3% | -6%[46.1 µM] | 4%
NS(=O)(=O)c1ccc(CNC(=O)CCC2CCCCC2)cc1 | 6.1% | 9% | 0% | 3% | 8% | -1% | -3%[46.1 µM] | 5%
CCC(C)C(NC(=O)c1ccccc1NC(=O)c1ccco1)C(=O)NC1CCCCC1 (stereo not given) | -2.3% | 4.5µM* | u | 0% | -23% | -11% | -17% | 5%
COCCn1c(=S)[nH]c2cc(C(=O)NCC3CCCO3)ccc2c1=O (stereo not given) | 1.5% | u | -8% | 6% | 13% | 1% | 2% | 8%
Cc1cccc(Nc2nnc(SCC(=O)NC3CCCc4ccccc43)s2)c1 (stereo not given) | -9.3% | 3% | -5% | 6% | u | u | u | 4%
CC(C)(C)c1nc(NC(=O)Nc2ccccc2)sc1Br | x | -37% | x | -4% | u | x | x | -10%
COc1cc(OC)c(/C=N/NC(=O)COc2cccc3cccnc23)c(OC)c1 | x | -3% | x | 1% | -14% | x | 6% | 17%
COCCNC(=O)c1cn(C)c2ccc(S(=O)(=O)N(C)C3CCCCC3)cc2c1=O | -3.8% | -16% | u | -5% | 16% | x | -6% | -2%
O=C(c1cc(F)ccc1F)C1CCCN(Cc2cccn2-c2ccccn2)C1 (stereo not given) | x | 2% | x | 4% | 18% | x | x | -15%
O=C(Nc1cccc(Oc2c(F)c(F)c(F)c(F)c2F)c1)N1C[C@@H]2C[C@@H](C1)c1cccc(=O)n1C2 | 1.9% | 0%&-10% | 20% | 3%&0% | 6% | 12% | -10% | 12%
CC(=O)Nc1sc2c(c1C(N)=O)CCC2 | -3.3% | 1% | -14% | 12% | 11% | 0% | -15% | 2%
CCOCCCNC(=O)C(c1ccc(Cl)cc1)N(Cc1cccs1)C(=O)c1ccc(NC(C)=O)cc1 (stereo not given) | 0.7% | x | u | x | 0% | u | 10µM* | x
C=CCn1c(Cc2ccc(OC)cc2)nnc1SCc1nc2ccccc2c(=O)[nH]1 | -3.3% | u | -8% | -12% | -7% | 2% | u | 13%
COc1ccccc1Nc1c([N+](=O)[O-])cncc1[N+](=O)[O-] | x | -2% | x | 0% | -6% | 5%[46.1 µM] | u | -11%
CCOC(=O)C1=NN(c2ccccc2C)C2=NC(C)=C(C(=O)OC)C(c3cccc(OC)c3)N12 (stereo not given) | -9.3% | -28% | u | -44% | u | u | 2% | -9%
CC1(C)C(=O)OC(c2ccccc2)C2(CCCC2)C1=O (stereo not given) | 4.2% | -7% | 8% | 4% | -24% | 8% | -14%[46.1 µM] | 3%
O=[N+]([O-])c1ccc(S(=O)(=O)NNC(=S)NCCc2ccccc2)cc1 | x | 8% | x | 3% | -9% | x | x | -1%
O=C(O)C1CC(=O)N(CCOc2ccccc2)C1 (stereo not given) | 13% | 3% | 7% | 2% | 21% | -5% | 21% | -8%
COc1ccc(NC(=O)CCN2C(=O)c3ccccc3S2(=O)=O)c(OC)c1 | x | x | x | -3% | 10% | 26%[46.1 µM] | -7%[46.1 µM] | 7%
CC(=O)Nc1cccc(NC(=O)C(=O)NCC(c2ccco2)N2CCc3ccccc32)c1 (stereo not given) | x | x | x | -1% | u | u | -26%[46.1 µM] | 12%
COc1ccc(CN2CCCN(C)CC2)c(OC)c1C | x | 4% | x | 13% | -1% | 11%[46.1 µM] | u | -6%
Cc1ccc(Cn2c(CN3CCN(c4cccc(Cl)c4)CC3)nc3c2c(=O)n(C)c(=O)n3C)cc1 | -8.9% | x | u | x | -19% | -23%[46.1 µM] | -3%[46.1 µM] | x
COc1ccc(Cc2noc(CN(C)CC(O)c3ccccc3)n2)cc1OC (stereo not given) | x | -6% | x | 1% | -18% | -5% | -30% | -2%
CCCOC(=O)c1ccc(Oc2coc3c(CN(CC)CC)c(O)ccc3c2=O)cc1 | -12% | -16% | 7% | -8% | 3% | -19% | -5% | 11%
C=CCn1c(=NC(=O)CC)n(C)c2ccccc21 | -2.6% | 16% | 3% | -8% | -17% | u | u | 13%

The list goes on; the last 5 above are carried over.
canonical_smiles | Cruzain Triton | NS1 inh | Cruzain inh noDet | SARS PLP yeast | StopGo reporter | LASV entry inh | Marburg entry inh | RE007 growth inh
COc1ccc(CN2CCCN(C)CC2)c(OC)c1C | x | 4% | x | 13% | -1% | 11%[46.1 µM] | u | -6%
Cc1ccc(Cn2c(CN3CCN(c4cccc(Cl)c4)CC3)nc3c2c(=O)n(C)c(=O)n3C)cc1 | -8.9% | x | u | x | -19% | -23%[46.1 µM] | -3%[46.1 µM] | x
COc1ccc(Cc2noc(CN(C)CC(O)c3ccccc3)n2)cc1OC (stereo not given) | x | -6% | x | 1% | -18% | -5% | -30% | -2%
CCCOC(=O)c1ccc(Oc2coc3c(CN(CC)CC)c(O)ccc3c2=O)cc1 | -12% | -16% | 7% | -8% | 3% | -19% | -5% | 11%
C=CCn1c(=NC(=O)CC)n(C)c2ccccc21 | -2.6% | 16% | 3% | -8% | -17% | u | u | 13%
COC(=O)CN(c1ccc(C(C)C)cc1)S(=O)(=O)c1c(C)[nH]c(=O)[nH]c1=O | 2.4% | -1% | 1% | -5% | -26% | x | x | 5%
CCCn1c(SCC(=O)Nc2nnc(C(C)C)s2)nc2c1c(=O)n(C)c(=O)n2C | 6.1% | -1% | 2% | 8% | 50%[activator] | 3% | -15% | 8%
CCO[C@H]1OC(C(=O)Nc2ccccc2)=C[C@@H](C)[C@@H]1CCCO | x | 4% | x | -1% | 2% | x | x | 1%
COc1ccc2[nH]c(=O)c(CN(Cc3ccccc3)C(=S)NCC3CCCO3)cc2c1 (stereo not given) | x | 3% | x | -1% | 20% | x | x | 5%
CC1(C)C2CCC1(CS(=O)(=O)NCc1ccc(C(=O)O)cc1)C(=O)C2 (stereo not given) | 4.3% | -8% | 2% | 4% | -15% | 16% | 15% | 9%
CCNC(=O)NC1(C(=O)Nc2ccc3c(c2)OCCO3)CCCCC1 | 7.9% | 11% | -11% | 3% | 3% | -4% | 18%[46.1 µM] | 19%
CCN1/C(=C2\SC(=S)N(Cc3ccccc3)C2=O)Sc2ccccc21 | -7.8% | 3% | 10µM* | -18% | 3% | u | 5% | -6%
O=C(CCC(=O)N1CCCC1)Nc1ccc([N+](=O)[O-])cc1 | x | 3% | x | 0% | 20% | -5%[46.1 µM] | u | -8%
